HIV TAR-Tat – HIV-1 TAR-Tat binding disruption | HIV-1 TAR RNA, Tat peptide displacement FRET; stronger effect = higher value | z-score (concentration not given with the values) | hit rate 0.6% among 100,000 | AID 1259389;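 also: score is relative to mean and SD of negative controls; some compounds called inactive have numbers as strong as hits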
CDC25B-CDK2 inh – human CDC25B-CDK2/CyclinA binding inhibition. P30305+P24941. HTRF CDC25B-CDK2/CyclinA binding, anti-His/anti-Flag; stronger effect = higher value. z-score (concentration not given with the values). hit rate 0.72% among 94,000. AID 1259370;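 also: score is relative to mean and SD of negative controls; strong numbers were not always called active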
Starred values were filed as active, the others as inactive; . = not tested or not shown.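 The calls were made as follows: active = z-score from 3 up in half or more of its runs; inactive = the rest.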 No enrichment for hits. Share with any hit: about 0.9%.

Compound	HIV TAR-Tat	CDC25B-CDK2 inh
C=Cn1c2ccccc2c2nc3ccccc3nc21	3.25	-0.64
CSc1cccc(NC(=O)NC(C)(C)C)c1	.	-0.93
CCCCC(CC)CNC(=O)c1ccc(NC2=NC3CS(=O)(=O)CC3S2)cc1 (configuration not stated)	1.57	.
Cc1ccc(C)c(S(=O)(=O)N(C(=O)c2ccncc2)c2ccc3oc(=O)sc3c2)c1	-0.32	-0.88
Cc1cc(NC(=O)Nc2nnc(N3CCCCC3C)s2)ccc1Br (configuration not stated)	1.07	-1.12
CC1(C)CC(=O)C=C(NCCCN2CCCC2=O)C1	1.06	0.01
Cn1nc(C(=O)NC2CCCc3ccccc32)c2c1-c1ccccc1SC2 (configuration not stated)	2.64	-2.61
COc1ccc2cc3cc(C(=O)NCC4COc5ccccc5O4)sc3nc2c1 (configuration not stated)	.	-1.73
O=C(NCc1ccccc1)c1ccc2oc(=O)n(Cc3ccccc3)c2c1	2.28	.
O=S(=O)(c1ccc2nc(NC3CCCCC3)cnc2c1)N1CCCCC1	-3.68	0.71
O=C(OCc1cc(=O)n2nc(C3CC3)sc2n1)c1ccccc1	-0.13	.
O=C1Nc2ccc(OC(F)(F)F)cc2C1=O	.	-1.18
O=C(COc1ccc(Cl)cc1)OCc1cc(=O)n2c3c(sc2n1)CCCC3	-0.26	.
Cc1ccc(S(=O)(=O)c2cnc3ccccc3c2N2CCCC2)cc1	0.69	-1.4
NNC(=O)Oc1ccccc1	.	-1.97
Cc1c(NC(=O)c2c(-c3ccccc3)c(-c3ccccc3)n[nH]c2=O)c(=O)n(-c2ccccc2)n1C	1.77	-1.22
O=C(COc1ccc(Cl)cc1Cl)Nc1ccc(S(=O)(=O)N2CCc3ccccc32)cc1	.	-3.72
Cn1cc(CCC(=O)N2CCc3ccccc32)c2ccccc21	1.58	.
O=C(O)c1ccc(CSc2nc3ccncc3n2Cc2ccccc2)cc1	0.95	-0.59
Cc1c(C(=O)NCc2cccs2)oc2ccc3c(c12)C(=O)CC1(CCCCC1)O3	1.35	1.32
C=CCOc1ccc(C2CC(=O)Nc3c2c(C)nn3-c2nncc(-c3ccc(C)cc3)n2)cc1 (configuration not stated)	2.86	-2.04
Fc1ccc(-c2cc(-c3ccccc3)nc(N/N=C\c3ccco3)n2)cc1	.	-1.3
O=C(Cn1cc2c(n1)CCCC2)NCc1ccc2c(c1)OCO2	.	0.02
Cc1nn(CC(=O)NCc2ccc3c(c2)OCO3)c(=O)c2cc3sccc3n12	0.72	-0.01
c1nnc(Sc2nc(N3CCOCC3)nc(N3CCOCC3)n2)n1-c1nc(N2CCOCC2)nc(N2CCOCC2)n1	.	-2.96
Cc1cc2c(c(=O)n1CC1CCCO1)C(c1ccc(Cl)cc1)C(C#N)=C(N)O2 (configuration not stated)	.	-0.15
CSc1nnc2c(n1)OC(c1cccc(O)c1)Nc1ccccc1-2 (configuration not stated)	-1.17	-1.96
O=[N+]([O-])c1cccnc1Sc1nccc(-c2ccco2)n1	.	-0.26
CCC(C)Nc1ncnc2c1c(-c1ccccc1)cn2-c1ccc(F)cc1 (configuration not stated)	-1.24	0.73
COc1ccc(-c2noc(-c3nnn(-c4ccc(C)c(Cl)c4)c3C)n2)cc1OC	-0.17	.
O=C(Nc1nccs1)C1CCCN(S(=O)(=O)c2ccc3[nH]c(=O)oc3c2)C1 (configuration not stated)	1.03	.
CCN(Cc1ccccc1)c1c(-c2ccc(Cl)cc2)c(=O)c1=O	-0.53	.
O=C1N=c2ccccc2=C1c1sc(Nc2ccc(Br)cc2)nc1O	.	-3.72
CCOC(=O)c1c(C)[nH]c(C)c1S(=O)(=O)NC(C)CC (configuration not stated)	0.95	.
CCC(C)C1N=C2c3ccccc3N=C(SC(C)C(=O)NCc3cccs3)N2C1=O (configuration not stated)	-0.78	.
O=S(=O)(NCc1ccccc1Cl)c1ccc(-n2cccn2)cc1	1.13	.
CC1=C(C(=O)OCc2ccc(C)cc2)C(c2ccc(Cl)cc2)NC(=O)N1 (configuration not stated)	.	-1.72
CC(=O)/C(N=Nc1c(C)nn(C)c1C)=C(\C)O	.	-1.12
CCN1CCN(C(c2ccccc2)c2sc3nc(C)nn3c2O)CC1 (configuration not stated)	.	-1.76
COc1ccccc1/C=C/c1nc(C#N)c(NCCN(C)C)o1	-0.93	-1.52
COc1ccc(CN2CC(O)=C(c3nc4ccccc4[nH]3)C2=N)cc1	0.87	-1.33
COc1ccc(OC2C(=O)N(CCc3ccc(F)cc3)C2c2ccc3c(c2)OCO3)cc1 (configuration not stated)	1.7	-0.25
COC(=O)c1ccc(C2CC(=O)NC3=C2C(=O)CC(c2ccc(F)cc2)C3)cc1 (configuration not stated)	-0.74	-1.9
NC(=O)CN1C(=O)CC(c2ccco2)Sc2ccccc21 (configuration not stated)	.	-0.71
O=C1CC(=O)Nc2cc(S(=O)(=O)N3CCN(C(=O)c4ccco4)CC3)ccc2N1	-1.4	.

By substructure, the entries above containing a Cl atom
Compound	HIV TAR-Tat	CDC25B-CDK2 inh
O=C(COc1ccc(Cl)cc1)OCc1cc(=O)n2c3c(sc2n1)CCCC3	-0.26	.
O=C(COc1ccc(Cl)cc1Cl)Nc1ccc(S(=O)(=O)N2CCc3ccccc32)cc1	.	-3.72
Cc1cc2c(c(=O)n1CC1CCCO1)C(c1ccc(Cl)cc1)C(C#N)=C(N)O2 (configuration not stated)	.	-0.15
COc1ccc(-c2noc(-c3nnn(-c4ccc(C)c(Cl)c4)c3C)n2)cc1OC	-0.17	.
CCN(Cc1ccccc1)c1c(-c2ccc(Cl)cc2)c(=O)c1=O	-0.53	.
O=S(=O)(NCc1ccccc1Cl)c1ccc(-n2cccn2)cc1	1.13	.
CC1=C(C(=O)OCc2ccc(C)cc2)C(c2ccc(Cl)cc2)NC(=O)N1 (configuration not stated)	.	-1.72

Other records follow:
Compound	HIV TAR-Tat	CDC25B-CDK2 inh
O=c1cc2nc(-c3ccco3)nc(SCc3ccccc3)n2[nH]1	1.82	.
Cc1ccc(N2C(=O)C3C(c4ccccc4Cl)OC4(C(=O)c5ccccc5C4=O)C3C2=O)cc1 (configuration not stated)	1.48	-0.9
Cc1cc2ncn(CC(O)COc3ccc(C(=O)O)cc3)c2cc1C (configuration not stated)	0.13	-1.08
CCOc1ccccc1C1C2=C(CCCC2=O)Nc2nc(SCc3cccc(F)c3)nn21 (configuration not stated)	-1.53	-1.21
CN(C)c1cccc2c(S(=O)(=O)NCc3ccc(S(N)(=O)=O)cc3)cccc12	.	-0.86
Clc1ccc2c(Nc3ccc4c(c3)OCO4)ccnc2c1	.	0.72
Cc1cc(C)c(S(=O)(=O)N2CCN(c3cc(N4CCOCC4)nc(C)n3)CC2)c(C)c1	0.21	0.21
CCOC(=O)Nc1ccc2c(c1)CCC(=O)N2CC	1.01	.
C=CCN1CC(c2nc3ccccc3n2Cc2ccccc2C)CC1=O (configuration not stated)	0.12	-0.33
Fc1ccccc1N1CCN(c2ncnc3c2nc2n3CCCC2)CC1	-1.01	.
CCOC(=O)c1ccc2nc(C(F)(F)F)nc(N3CC(C)CC(C)C3)c2c1 (configuration not stated)	0.09	-0.82
O=C1NC(=O)C(Nc2ccc(Br)cc2)S1 (configuration not stated)	.	-2.62
CS(=O)(=O)Nc1ccc(C2=NN(C(=O)c3ccco3)C(c3ccc(F)cc3)C2)cc1 (configuration not stated)	.	-2.08
CSC1=C(C#N)C(=O)NC(c2ccccc2O)S1 (configuration not stated)	.	-0.48
CN(C)c1cccc2c(S(=O)(=O)N3CCOCC3)cccc12	-3.24	-1.78
O=C(O)c1cc2n(n1)C(C(F)(F)F)CC(c1ccco1)N2 (configuration not stated)	0.7	1.75
CCC(=O)N1CCc2cc(S(=O)(=O)CCC(=O)N3CCCCCC3)ccc21	.	-0.16
CCOc1nc(-c2ccccc2)ccc1-c1noc(COc2ccccc2)n1	-1.25	-0.6
O=C(CCc1nnc2ccc(NCc3ccc4c(c3)OCO4)nn12)N1CCOCC1	1.88	.
COc1ccc(NS(=O)(=O)c2ccc3c(c2)oc(=S)n3C)cc1	1.13	.
CCOC(=O)c1sc2ncnc(OCC)c2c1C	1.89	-1.94
O=c1c2nnn(Cc3ccc(Cl)cc3)c2ncn1Cc1ccccc1F	1.51	-0.22
Cc1ccc(NS(=O)(=O)c2ccc3c(c2)N(C)CCO3)c(Cl)c1	0.55	.
COc1ccc(C2CC(=O)NC3=C2C(=O)CC(c2cc(OC)ccc2OC)C3)cc1 (configuration not stated)	-0.83	-2.54
CN(C)CCN(C(=O)C1=COCCO1)c1nc2ccc(F)cc2s1	0.51	.
COC(=O)c1[nH]c(=O)c2ccccc2c1O	1.39	-3.04
CCn1c(=O)n(CC)c2cc(S(=O)(=O)N3CCN(C(=O)c4ccco4)CC3)ccc21	0.06	.
CCOC(=O)c1sc(NC(=O)c2nc3ncccn3n2)c(C(=O)OC)c1C	0.74	0.24
COc1nnc(-c2ccc(C)c(S(=O)(=O)NC(C)(C)C)c2)c2ccccc12	0.31	-3.87
COCCCN1CC(O)=C(c2nc3ccccc3s2)C1=N	1.55	-1.93
Cc1nc(-c2ccc(C)c(S(=O)(=O)NCc3ccccc3C)c2)cs1	-0.07	.
COc1ccccc1-c1coc2cc(OC(C)C(=O)OCc3ccccc3)ccc2c1=O (configuration not stated)	2.6	0.71
CCc1ccc(-n2nnnc2C/C=N/Nc2ccc([N+](=O)[O-])cc2)cc1	.	-1.98
CCN(CC)CCOC(=O)c1ccc2c(c1)OCCO2	-0.51	-0.13
O=S(=O)(Nc1cccc(-c2ccc(N3CCOCC3)nn2)c1)c1ccccc1Cl	1.53	.
CC(C)(C)c1cc(C(=O)N/N=C/c2ccc([N+](=O)[O-])s2)n[nH]1	.	-0.84
Nc1nc(F)cc(N2CCCCCC2)n1	.	0.89
Cc1noc(C)c1CCNC(=O)CSc1ncnc2c1sc1cccc(F)c12	0.38	.
COC(=O)c1ccc(C(=O)N(CCN(C)C)c2nc3ccc(Br)cc3s2)cc1	0.62	.
Cc1ccc(-n2c(=O)[nH]c3c(C(N)=O)nc(-c4cccnc4)nc32)cc1C	-1.19	.
Nc1nc2c(s1)CCc1c-2cnn1-c1ccccc1	.	-7.86
Cc1ccc2cc(NC(=O)c3ccco3)ccc2n1	.	-1.23
O=C(Cn1ncc2c3ccccc3n(Cc3ccc(F)cc3)c2c1=O)NC1CC1	0.78	-0.34
CC1=C(c2ccc(C)c(C)c2)S(=O)(=O)NC1=NCc1ccc(F)cc1	-0.96	-6.21
CC1CC(C)CN(C(=O)Cn2ncc3c4ccccc4n(C)c3c2=O)C1 (configuration not stated)	-0.2	-0.54
CC(C)c1nn2c(=O)cc(COC(=O)CSc3ccc(Cl)cc3)nc2s1	0.97	.
O=C(NC1CCCC1)C1CCN(c2nn3c(=O)c4c(nc3s2)CCCC4)CC1	3.27	.
CC(C)(C)c1cc(CN2CCOCC2)c(O)c(CN2CCOCC2)c1	0.04	-1.1
CCOc1ccc2nc(NC(=O)C3CCCN(c4ncnc5c4nc4n5CCCCC4)C3)sc2c1 (configuration not stated)	-1.72	.
CCOC(=O)CSc1nc(C2CC2)cc(-c2ccccc2)c1C#N	-0.85	0.83
Cn1c(=O)c2c(nc3sccn32)n(C)c1=O	.	0.57
Cc1ccc(C)c(NS(=O)(=O)c2ccc(-n3cccn3)cc2)c1	1.12	.
O=C1C2=C(Nc3[nH]c(=O)[nH]c(=O)c3C2c2ccc(Cl)cc2)c2ccccc21 (configuration not stated)	0.35	0.72
O=C(c1cc2c(s1)-c1ccc(Cl)cc1S(=O)(=O)C2)N1CCCCC1c1cccnc1 (configuration not stated)	1.39	-1.27
CN(CC(=O)Nc1nc2ccc(Cl)cc2s1)S(=O)(=O)c1c[nH]c(C(=O)N2CCCC2)c1	1.54	.
COc1ccc(OCC(O)CNC(=O)c2cccnc2Oc2ccc(Cl)cc2)cc1 (configuration not stated)	.	0.66
O=C1c2nccnc2C(=O)N1c1nccs1	0.36	-0.45
CCOC(=O)c1ccc(NC2=C(N3CCCCC3)C(=O)c3ccccc3C2=O)cc1	.	17.2*
CC1CCN(c2nn3c(=O)c(C(=O)N4CCN(C)CC4)cnc3s2)CC1	-2.68	.
Clc1ccc(CNc2c(-c3ccc4c(c3)OCCO4)nc3ncccn23)cc1	16.4	.

Remaining list, next part.
Compound	HIV TAR-Tat	CDC25B-CDK2 inh
COc1ccc(-c2oc3ncnc(NCCCn4ccnc4)c3c2-c2ccc(OC)cc2)cc1	2.56	-1.25
CCC(C)NC(=O)Nc1ccc2nc(NS(C)(=O)=O)sc2c1 (configuration not stated)	1.35	.
CC1=C(C(=O)OCc2ccccc2)C(c2ccccc2C)n2ncnc2N1 (configuration not stated)	-0.56	0.61
Cc1cccc(C(=O)Oc2cc(-c3ccc4c(c3)OCO4)cc(=O)c3c(C)oc(C)c23)c1	0.8	-0.76
COC(OC)c1ccnc(SCC(=O)Nc2ccc(C(C)C)cc2)n1	.	-0.62
Cc1ccc(-c2nnc(SCc3ccccc3)o2)cc1	0.79	-1
Cc1sc2ncnc(NCc3ccccc3)c2c1C	.	-2.17
COc1ccc(C2=NN(C(=O)CCC(=O)O)C(c3ccc(F)cc3)C2)cc1OC (configuration not stated)	.	-1.07

Screens (PubChem)
